Screening data: PubChem, ICCB-Longwood Screening Facility, Harvard Medical School
Ba CapD inh – blocks the Bacillus anthracis CapD enzyme. purified CapD enzyme, fluorescence intensity read-out; stronger effect = lower value; some hits fall short of the stated cut. z-score (no concentration beside the values). hit rate 0.23% among 140,000. AID 492967;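 active = z-score under -4 in either of two replicates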;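 also: stock transfer was 100 nL into about 40 µL; score is relative to mean and spread of the plate; one replicate is shown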
AID504770 – E. coli YBA685 growth inhibition, screen for V. cholerae RctB inhibitors; AID 504770; hit rate 0.27% among 130,000; E. coli YBA685 rctB-dependent plasmid, OD600 growth, 3 h; stronger effect = lower value; z-score (test concentration not listed);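 active = z-score under -2 on both plates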;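 also: wells of about 30 µL received 100 nL stock; score is relative to mean and SD of the test wells; the first replicate is given; strong numbers were not always called active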
The depositor's hits bear a star; / = no result given.

SMILES | Ba CapD inh | AID504770
Cc1ccc(C(=O)C2=C(N)OC3=C(C(=O)CC(C)(C)C3)C2c2ccccc2)cc1 (centres undefined) | -0.23 | -0.45
CN(C)c1sc(C#N)cc1-c1ccccc1 | -1.3 | 0.05
CN1CCN(c2cc(N3CCN(C)CC3)c([N+](=O)[O-])cc2C2Nc3ccc4ccccc4c3C3=C2C(=O)CC(C)(C)C3)CC1 (centres undefined) | -0.44 | /
COc1cccc(NC(=O)C2C3C=CC(C4CC34)C2C(=O)O)c1 (centres undefined) | -0.46 | 1.6
CN(C)CCCNCc1ccco1 | / | -0.55
COc1ccc(C2NC(=S)NC(C)=C2C(=O)Nc2ccccc2C)c(OC)c1 (centres undefined) | -1.4 | /
COc1ccc(N(C(=O)c2snc(C(N)=O)c2N)C(C(=O)NCc2ccc(F)cc2)c2ccc(C)o2)c(OC)c1 (centres undefined) | / | 0.65
COc1ccc(Oc2ccc(C(F)(F)F)cc2NS(=O)(=O)c2cccc3nonc23)cc1 | -0.1 | -0.85
COc1cc(S(=O)(=O)N2CCC3(CC2)OCCO3)ccc1-n1cnnn1 | 0.23 | 0.7
Cc1cc(C=C(C(=O)O)C(=O)O)c(C)n1Cc1ccco1 | / | -0.15
CC1CCCCN1C(=O)c1ccc(N2CC3CC(C2)c2cccc(=O)n2C3)c(NC(=O)c2ccc(Br)o2)c1 (centres undefined) | -0.22 | /
C#CCSc1nnc(-c2cc(N(C)C)nc(N(C)C)n2)n1C | 16 | /
O=C(c1cccs1)N1CCCN(S(=O)(=O)c2cccc(Cl)c2Cl)CC1 | 0.06 | 0.2
CC12COC3(C(=O)N4CCCCCC4)CC1CCC32C (centres undefined) | 0.075 | /
COc1cccc(NC(=S)NCc2ccncc2)c1 | -0.95 | /
CCOC(=O)CN1C(=O)C2(C(C#N)=C(N)Oc3n[nH]c(C)c32)c2ccccc21 (centres undefined) | 23 | -0.15
CC1CN(c2oc(-c3ccccc3F)nc2C#N)CC(C)O1 (centres undefined) | 54 | -0.4
COc1cc(OC)nc(C2CCN(C(=O)Nc3cc(C)cc(C)c3)CC2)n1 | 0.03 | /
O=C(N/C=C/c1cccs1)NCc1ccc(C(F)(F)F)cc1 | -0.95 | 2.2
COc1ccc(-c2nn(-c3ccccc3)cc2C(=O)OCC(C)C)cc1 | 1.6 | -0.2
CN1C(=O)CC(C(=O)Nc2ccccc2)SC1=Nc1ccc(Br)cc1 (centres undefined) | 0.35 | /
Cc1ccc(CNC(=O)CSc2nc3ccccc3c(=O)n2CC2CCC(C(=O)NCC3CCCO3)CC2)cc1 (centres undefined) | -0.59 | /
COc1ccc(OCC(=O)Nc2ccc3c(c2)OCO3)cc1 | / | -1.1
CCCc1nc2c(c3c1[nH]c1ccc(Br)cc13)C(=O)CC(C)(C)C2 | 3 | /
CSc1nnc(SCC(=O)c2sc3ccc(Cl)cc3c2C)s1 | 0.64 | 0.8

Carrying on:
SMILES | Ba CapD inh | AID504770
O=C(O)CSc1nnc(-c2ccccc2)n1-c1ccccc1 | / | -0.5
CCN1CCN(C(=O)c2sc3ncnc(N4CCN(c5ccc(OC)cc5)CC4)c3c2C)CC1 | -0.35 | /
Cc1ccc(Cn2nc(C)c(C(=O)N3CCC(n4c(=O)[nH]c5ccccc54)CC3)c2Cl)cc1 | / | -0.85
COc1cccc(NC(=S)Nc2ccc(Br)cc2Cl)c1 | 0.24 | /
S=C1NC2CCCCC2N1 (centres undefined) | / | -0.6
N#C/C(=C\C=C\c1ccco1)c1nc2c(s1)CCCC2 | -3.6 | -1.1
CN(C1CCCCC1)S(=O)(=O)c1ccc(F)c(F)c1 | 0.35 | 0.15
Cc1cc(=O)[nH]c(SCC(=O)N2CCC(Cc3ccccc3)CC2)c1C#N | / | -1.1
Cc1ccc(-n2nc3c(c2NC(=O)c2ccc(S(=O)(=O)N(C)C)cc2)CS(=O)(=O)C3)cc1 | -0.45 | /
Cc1cc(NC(=O)c2sc3ncnc(N4CCN(c5ccccc5F)CC4)c3c2C)no1 | 0.78 | /
C=CCn1c(=O)[nH]c2cc(C(=O)NCc3ccccc3)ccc2c1=O | 6.8 | 0.05
Cc1cc(C)n(CC(=O)NC2CCCCC2C)c(=O)c1C#N (centres undefined) | / | -0.9
Cc1c(C(=O)NCCCN2CCCCC2)sc2nc3n(c(=O)c12)CCCC3 | 0.81 | 0
CC1=CCC(C(=O)N(Cc2cccnc2)Cc2ccc(Cl)cc2Cl)C(C(=O)O)C1 (centres undefined) | -0.71 | 1.1
Cc1ccccc1C(=O)Nc1ccc(NC(=O)c2ccc(C(C)(C)C)cc2)cc1 | 0.11 | -0.4
NC(=S)N/N=C/c1ccc(Sc2cccc3cccnc23)o1 | / | 1.4
O=S(=O)(c1ccc(F)cc1F)N1c2cccc3cccc(c23)S1(=O)=O | / | -0.15
CC(=O)NCc1ccc(C(=O)COC(=O)/C=C/c2ccc(C)o2)o1 | / | 0.65
CCC(=O)Nc1ccccc1C(=O)N(C)C | -0.22 | 0.85
O=C(O)COc1ccc(/C=N/NC(=O)c2ccc3ccccc3c2)cc1 | 0.6 | /
Cc1cnc(=O)[nH]c1SCc1ccc(C(F)(F)F)cc1 | / | 0.95
Oc1ccc2ccccc2c1C=NN1CCN(Cc2ccccc2)CC1 | -0.35 | 2
O=C1Nc2ccccc2S/C1=C/c1cccs1 | -0.2 | 1.4
C=CCN1C(=O)CN=C(c2cccs2)c2c1sc1c2CCC1 | / | -0.35
Clc1ccc(Oc2cnccn2)c2ccccc12 | / | -2

As a working copy, 16 of the compounds above.
SMILES | Ba CapD inh | AID504770
Cc1ccc(Cn2nc(C)c(C(=O)N3CCC(n4c(=O)[nH]c5ccccc54)CC3)c2Cl)cc1 | / | -0.85
COc1cccc(NC(=S)Nc2ccc(Br)cc2Cl)c1 | 0.24 | /
S=C1NC2CCCCC2N1 (centres undefined) | / | -0.6
N#C/C(=C\C=C\c1ccco1)c1nc2c(s1)CCCC2 | -3.6 | -1.1
CN(C1CCCCC1)S(=O)(=O)c1ccc(F)c(F)c1 | 0.35 | 0.15
Cc1cc(=O)[nH]c(SCC(=O)N2CCC(Cc3ccccc3)CC2)c1C#N | / | -1.1
Cc1ccc(-n2nc3c(c2NC(=O)c2ccc(S(=O)(=O)N(C)C)cc2)CS(=O)(=O)C3)cc1 | -0.45 | /
Cc1cc(NC(=O)c2sc3ncnc(N4CCN(c5ccccc5F)CC4)c3c2C)no1 | 0.78 | /
C=CCn1c(=O)[nH]c2cc(C(=O)NCc3ccccc3)ccc2c1=O | 6.8 | 0.05
Cc1cc(C)n(CC(=O)NC2CCCCC2C)c(=O)c1C#N (centres undefined) | / | -0.9
Cc1c(C(=O)NCCCN2CCCCC2)sc2nc3n(c(=O)c12)CCCC3 | 0.81 | 0
CC1=CCC(C(=O)N(Cc2cccnc2)Cc2ccc(Cl)cc2Cl)C(C(=O)O)C1 (centres undefined) | -0.71 | 1.1
Cc1ccccc1C(=O)Nc1ccc(NC(=O)c2ccc(C(C)(C)C)cc2)cc1 | 0.11 | -0.4
NC(=S)N/N=C/c1ccc(Sc2cccc3cccnc23)o1 | / | 1.4
O=S(=O)(c1ccc(F)cc1F)N1c2cccc3cccc(c23)S1(=O)=O | / | -0.15
CC(=O)NCc1ccc(C(=O)COC(=O)/C=C/c2ccc(C)o2)o1 | / | 0.65

Continuation:
SMILES | Ba CapD inh | AID504770
N#Cc1cnc(SCc2cc(=O)n3ccccc3n2)nc1N | 0.14 | -1.2
COc1ccc2nc(N3CCCC3=O)sc2c1 | -0.21 | -1.1
CC(C)(CNC(=O)c1ccccc1OCCOc1ccccc1)N1CCOCC1 | / | 0.25
O=C(O)CC1S/C(=N/N=C/C=C/c2ccccc2)NC1=O (centres undefined) | / | -0.1
COC(=O)c1ccc2[nH]c(C)cc(=O)c2c1 | 0.67 | 0.7
O=c1c2cc(NC(=S)NC3CCCCCC3)ccc2nc2n1CCCCC2 | -1.2 | /
CC1CCCC(C2(O)C(=O)Nc3ccccc32)C1=O (centres undefined) | 2.2 | 1
C=CCC1C=CCC(CC=C)N1C(=O)CCC(=O)O (centres undefined) | / | 2.2
CCCCN(C)S(=O)(=O)c1ccc(C(=O)Nc2nc3ccc4ccccc4c3s2)cc1 | 27 | 1.1
CC(OC(=O)Cn1cnc2c1c(=O)n(C)c(=O)n2C)C(N)=O (centres undefined) | / | -0.55
CN1CCc2[nH]c(=S)c(C#N)c(-c3cccs3)c2C1 | 0.2 | 0.65
O=C(Nc1ccc(Br)cc1)c1noc2c1CCc1ccccc1-2 | 16 | -0.25
CC(C)CCNC(=O)C1CCC(=O)N1CCc1ccccc1 (centres undefined) | -0.23 | -0.5
O=C(/C(=C(\O)c1ccccc1)c1ncc[nH]1)c1ccccc1 | / | -0.85
Cc1ccc(NC2=C/C(=N/S(=O)(=O)c3ccc(F)cc3)c3ccccc3C2=O)cc1C | -0.39 | -1.3
CSc1c(C#N)c(N)nn1C | -0.28 | 2.2
CC1(C)CC(=O)C(C=Nc2cccc(NC3=C(C#N)C(=O)CC(C)(C)C3)c2)=C(O)C1 | 0.53 | -0.4
COc1ccc(N2C(=O)/C(=C\c3ccco3)N=C2SCC(=O)/C(C#N)=C(\C)N)cc1Cl | / | -0.2
O=C(Oc1ccc(-c2csnn2)cc1)C1CC1 | -0.05 | -1.9
O=C(O)C1CCN(S(=O)(=O)N2CCOCC2)CC1 | -0.33 | -0.8
Cn1c(=O)cc(SCC(=O)N2CCCC2)c2ccc(Cl)cc21 | 1.9 | -0.6
COc1ccc(CNC(=S)NC(C)C)cc1OC | / | -0.05
COc1cc(C#N)c(NC(=S)NCc2cccc(Cl)c2)cc1OC | 2.8 | /
O=C(CSc1ccccn1)N1CCc2ccccc21 | / | 0.4
O=C(O)c1ccc(CN2CCCCC2)cc1 | / | 0.25

Remaining list, next part
SMILES | Ba CapD inh | AID504770
O=C(NC(C(=O)O)c1ccccc1)c1ccccc1 (centres undefined) | 0.26 | 0.6
O=c1c2ccccc2[nH]c(=S)n1/N=C/c1ccccc1 | / | -0.45
COc1ccc(Br)cc1/C=C1/N=C(c2cccc([N+](=O)[O-])c2C)OC1=O | 0.45 | /
Cn1c(O)c(/C=N/c2sc3c(c2C#N)CCCC3)c2ccccc21 | 0.9 | 0.4
CCOC(=O)C1=C(C)N=c2s/c(=C\c3ccccc3OC(C)=O)c(=O)n2C1c1ccc(OCC)c(OCC)c1 (centres undefined) | -0.055 | /
CC1CCC(C#N)(N(C)C(=O)CN2CC=C(c3ccccc3)CC2)CC1 (centres undefined) | / | 1.2
CCOc1cccc2cc(C(=O)Nc3cc(C(=O)O)ccc3C)c(=Nc3ccc(C(=O)O)cc3)oc12 | -0.075 | /
CC1=CCC2C(=O)N(CCCC(=O)O)C(=O)C2C1 (centres undefined) | -0.33 | -1.6
CC(C)c1ccc(NCN2C(=O)CCC2=O)cc1 | 0.73 | /
CCOc1cc(C(C2C(=O)CC(C)(C)CC2=O)C2C(=O)CC(C)(C)CC2=O)ccc1OCc1c(C)no[n+]1[O-] | / | -0.2
CCc1cccc(NC(=O)CN(C)Cc2ccccc2OC)c1 | / | -0.15
O=C1CN(c2ccccc2)C=NN1 | -0.11 | 0
O=C1C(=Nc2ccccc2)c2ccccc2N1CN1CCN(c2ccccc2)CC1 | -0.45 | 0
O=CNC(C(=O)Nc1cccc(Cl)c1)c1ccccc1Cl (centres undefined) | -0.1 | -1.1
Cc1cccc(C)c1NC(=O)C1=C(O)c2sccc2N(C)S1(=O)=O | 0.16 | /
CC(Sc1nnc(-c2cccnc2)n1N)C(=O)Nc1ccc2c(c1)OCCO2 (centres undefined) | / | -0.95
O=C(NCCc1ccccc1)C1CCC(=O)N1C1CCCC1 (centres undefined) | 0.025 | 2.1
CC(=O)NCN1CCN(CNC(C)=O)CC1 | -0.13 | -0.85
CC(C)NC(=O)CCn1c(=S)[nH]c2cc3c(cc2c1=O)OCO3 | -0.4 | 1.1
CCCc1nc2oc3c(-c4ccccc4)c(C(=O)O)c(C)nc3c2c2c1COC(C)(C)C2 | 0.47 | 1
CC(C)NP(=O)(c1ccccc1)C(C)(C)C (centres undefined) | / | 1.8
O=C(COC(=O)c1cccnc1)NC(c1ccccc1)c1ccccc1 | -0.83 | -0.35
CN(C1CCCC1)C1CCN(C(=O)CNC(=O)/C=C/c2ccccc2)CC1 | -2.4 | -1.1
O=C(Nc1ccccc1)c1sccc1Oc1ccc(F)cc1[N+](=O)[O-] | -0.46 | /
CCC(Sc1nncn2c1cc1occc12)C(=O)Nc1ccccc1OC (centres undefined) | -0.23 | -0.15

Next structures follow:
SMILES | Ba CapD inh | AID504770
N#CC1=C(N)N(c2ccc(S(N)(=O)=O)cc2)C2=C(C(=O)CCC2)C1c1ccc([N+](=O)[O-])cc1 (centres undefined) | -0.37 | /
CCOC(=O)c1ccc2c(c1)nc(C1CCN(S(=O)(=O)c3cccs3)CC1)n2CC | / | 0.2
O=C(CSc1ncccn1)Nc1ccc2c(c1)CCC2 | / | 1.7
CC(C)CN(CC(C)C)S(=O)(=O)c1cccc2cccnc12 | 0.2 | 1.1
Cc1ccc(C)n1-c1ccc2c(c1)COC2=O | -0.035 | -1.2
CCOc1ccc(O)c(C(=O)C(F)(F)F)c1 | / | -0.1
CN(Cc1ccccc1)c1ccn(-c2nc(-c3ccccc3)oc2-c2ccccc2)c(=O)n1 | 3.4 | /
C=CCn1c(SCC(=O)N2CCNC2=O)nc2scc(C3CC3)c2c1=O | / | 0.4
CN(C)C(=O)c1ccc(NCc2cc(=O)oc3cc(O)ccc23)cc1 | / | -0.7
COc1ccc(OC)c(C2NC(=O)c3c(sc4c3CCCC4)N2)c1 (centres undefined) | -0.27 | /
C#CCn1c(-c2ccccc2)nc2ccccc21 | 0.41 | -0.55
CCCCC(=O)Nc1cccc(C(=O)N/N=C/c2ccco2)c1 | -1.7 | -0.1
COc1ccc(CNCC(=O)N2CCN(C(=O)CNCc3ccc(OC)cc3)CC2)cc1 | / | -0.9
C=CCc1c(C)nc(SCC(=O)C(C)(C)C)[nH]c1=O | 0.31 | /
O/N=C/c1ccc(-c2cc(Cl)ccc2Cl)o1 | -0.13 | 0.05
COCCn1c(Cc2ccccc2)nnc1SCC(=O)c1ccc2c(c1)CC(=O)N2 | / | -0.15

The list is partial; the hit share may differ from the screen's.
